Screening results (PubChem BioAssay)
GSK3beta inhib: inhibitors of human GSK3beta kinase. activity score (negative = inhibition), % at 10 µM. P49841. GST-GSK3beta kinase, ADP-Glo luminescence, 60 min; hits give low values. AID 2097. 300,000 tested, 0.038% active;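 active = more than half of replicate wells score below -50%, meaning over 50% inhibition versus plate controls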;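 note: 0% = median DMSO wells and -100% = median GW8510 positive control wells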
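Test system – GST-tagged human GSK3beta kinase, cell-free · Incubation – 60 min enzyme reaction, room temperature · Signal – ADP-Glo luminescence · Also added – peptide substrate and ATP at 25 µM · Controls – DMSO neutral wells and GW8510 at 20 µM as positive · Buffer or medium – Tris/MgCl2 kinase buffer · Measure – Luminescence-derived activity versus plate DMSO and GW8510 wells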
GSK3A inh: human GSK-3 alpha kinase inhibition. P49840. ADP-Glo luminescence, 60 min. inhibition, % at 10 µM. 320,000 tested, 0.1% active. AID 2650;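 in the data active = inhibition above about 50%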;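 note: GST-tagged GSK-3 alpha with peptide substrate and 25 µM ATP; 0% = DMSO neutral wells and 100% = GW8510 positive control wells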
PolyA inhibitor: blocks polyadenylation in yeast reporter cells | S. cerevisiae SKY197-pL101 polyadenylation reporter, beta-gal luminescence; efflux-impaired pdr1/pdr3 knockout yeast; score 100 = 6 SD above DMSO | calls only at 12 µM | 300,000 tested, 0.02% active | AID 1875;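 active = lowest replicate activity score at least 50, where 100 means six control SD above control mean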;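 note: yeast exposed to compound for 9 h at 30 °C; higher score means more reporter readthrough which indicates perturbed polyadenylation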
DYRK1A inh: Dyrk1A (rat) kinase inhibition. ADP-Glo luminescence, NFATc1 peptide. inhibition, % at 12.5 µM. 310,000 tested, 0.43% active. Q63470. AID 504441; in the data active = inhibition above about 50%;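 note: plate controls were vehicle with enzyme for no effect and no enzyme for full effect; many of its hits are not listed in these tables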
RGS4 block: human RGS4 inhibition | P49798 | HEK293 M3R/RGS4 inducible, Fluo-4 calcium flux; hits give high values; triggered by carbachol at its EC20 | B-score at 10 µM | 310,000 tested, 0.45% active;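 active = B-score, a plate-corrected calcium signal, over three deviations above library mean, with baseline fluorescence within five deviations of library mean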;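 note: RGS4 expression induced by doxycycline in cells with stable M3 receptor; B-score is computed from the integrated fluorescence ratio over baseline after carbachol; higher B-score means a larger calcium signal and so more RGS4 inhibition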
Target sequence (P49798 whole entry, looked up): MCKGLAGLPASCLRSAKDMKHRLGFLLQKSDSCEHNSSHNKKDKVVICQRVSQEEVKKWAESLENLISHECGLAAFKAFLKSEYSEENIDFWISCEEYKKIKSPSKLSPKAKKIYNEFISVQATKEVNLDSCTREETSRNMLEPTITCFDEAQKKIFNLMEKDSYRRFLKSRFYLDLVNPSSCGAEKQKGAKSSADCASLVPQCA
RGS4 pot: potentiators or activators of RGS4 | HEK293 M3R/inducible RGS4, carbachol calcium flux Fluo4; hits give low values | B-score at 10 µM | 310,000 tested, 0.92% active;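 active = B-score of the integrated calcium signal more than 4 SD below the library mean, with starting fluorescence not abnormally high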;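 note: negative B-score means reduced calcium response which marks RGS4 activation or potentiation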
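Reagent: ECmax carbachol challenge; Test system: M3R-expressing HEK293 line, RGS4 induced by doxycycline; Schedule: overnight RGS4 induction, 30 min dye load 37 °C, 20 min compound RT; Detection: calcium dye Fluo4 fluorescence; Read-out: Agonist-evoked peak-minus-minimum fluorescence over baseline, integrated ratio, B score.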
* marks the source's active call; other numbers are inactive results; i = inactive; . = not tested or not shown. A portion of the library; count on the stated rates, not on these rows.

Screens in order – RGS4 pot, PolyA inhibitor, GSK3beta inhib, GSK3A inh, DYRK1A inh, RGS4 block
C[C@H]1[C@H](C)CC[C@]2(C(=O)O)CC[C@]3(C)C(=CC[C@@H]4[C@@]5(C)CC[C@H](O)C(C)(C)[C@@H]5CC[C@]43C)[C@H]12
  i, i, 3.6, -3.2, 4.3, i
O=C(CCNS(=O)(=O)c1ccccc1C(F)(F)F)N1CCN(C(c2ccccc2)c2ccccc2)CC1
  i, i, 0.1, -2.1, -1.8, i
CC1(C)S[C@@H]2[C@H](NC(=O)[C@H](N)c3ccc(O)cc3)C(=O)N2[C@H]1C(=O)O
  i, i, 6.4, 1.4, -6.8, i
COc1cccc(CN(Cc2ccco2)C(c2ccc(F)cc2)c2nnnn2C(C)(C)C)c1 (stereo not drawn)
  i, i, 1.2, 4.1, 2.4, i
O=C(Nc1ccccc1)c1ccccc1NS(=O)(=O)c1ccc(Cl)s1
  i, i, 6.9, -3.4, -2.1, i
CCCCC(c1nnnn1CC1CCCO1)N1CCN(c2cc(Cl)ccc2C)CC1 (stereo not drawn)
  i, i, 2.1, ., 1.1, i
NC(N)=Nc1nc(CSCC/C(N)=N/S(N)(=O)=O)cs1
  i, i, 6.2, -0.8, 3.7, i
Cc1ccc(N2C(=O)c3ccccc3NC2C(C)Cc2ccc3c(c2)OCO3)cc1 (stereo not drawn)
  i, i, -3.4, 0.8, -3.6, i
CNCC[C@@H](Oc1ccccc1C)c1ccccc1
  i, i, 0.1, -3.9, 4.2, i
COc1ccc(OCC(=O)Nc2ccccc2N2CCCCC2)cc1
  i, i, 0.6, 2.2, 0.7, i
Fc1ccc(C2c3cccn3CCN2C(=S)Nc2cccc(Br)c2)cc1 (stereo not drawn)
  i, i, 2.5, -2.7, ., i
COc1ccc(C(=O)Nc2ccccc2N2CCCCC2)cc1[N+](=O)[O-]
  i, i, 0.1, 3.7, 0.0, i

Part of the list above, with tabs.
SMILES	RGS4 pot	PolyA inhibitor	GSK3beta inhib	GSK3A inh	DYRK1A inh	RGS4 block
COc1cccc(CN(Cc2ccco2)C(c2ccc(F)cc2)c2nnnn2C(C)(C)C)c1 (stereo not drawn)	i	i	1.2	4.1	2.4	i
O=C(Nc1ccccc1)c1ccccc1NS(=O)(=O)c1ccc(Cl)s1	i	i	6.9	-3.4	-2.1	i
CCCCC(c1nnnn1CC1CCCO1)N1CCN(c2cc(Cl)ccc2C)CC1 (stereo not drawn)	i	i	2.1	.	1.1	i
NC(N)=Nc1nc(CSCC/C(N)=N/S(N)(=O)=O)cs1	i	i	6.2	-0.8	3.7	i
Cc1ccc(N2C(=O)c3ccccc3NC2C(C)Cc2ccc3c(c2)OCO3)cc1 (stereo not drawn)	i	i	-3.4	0.8	-3.6	i
CNCC[C@@H](Oc1ccccc1C)c1ccccc1	i	i	0.1	-3.9	4.2	i

Filtered by structure, the entries above with a Cl atom
Screens in order – RGS4 pot, PolyA inhibitor, GSK3beta inhib, GSK3A inh, DYRK1A inh, RGS4 block
O=C(Nc1ccccc1)c1ccccc1NS(=O)(=O)c1ccc(Cl)s1
  i, i, 6.9, -3.4, -2.1, i
CCCCC(c1nnnn1CC1CCCO1)N1CCN(c2cc(Cl)ccc2C)CC1 (stereo not drawn)
  i, i, 2.1, ., 1.1, i
